Bioassay records: PubChem, Southern Research Institute
Mtb H37Rv: Mycobacterium tuberculosis H37Rv growth inhibition, cell based, confirmatory dose response (AID 1949) | inhibition, % at 10 µg/mL; hits with a dose series show IC50 in µg/mL | hit rate 1.6% among 100,000 | most inactive calls were filed without a number and no value below 0 was filed;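 active = confirmed in a dose series; inconclusive = about 50% or more but not retested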;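 note: bacteria grown 7 days with compound before Alamar blue readout; 0% = untreated bacteria and 100% = reference antibiotic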
Numbers without * were called inactive; i = inactive; ? = inconclusive.

SMILES | Mtb H37Rv
COc1cc(NC(=O)C2=C(C)NC(=O)NC2c2ccc(Cl)cc2)c(OC)cc1Cl (stereo not given) | i
CCn1cc(C(=O)O)c(=O)c2cc(F)c(N3CCN(C(=S)NC4CC5CCC4C5)CC3)cc21 (stereo not given) | 12%
O=C(NC(=S)NC12CC3CC(CC(C3)C1)C2)c1ccccc1I | 7%
COc1ccc(S(=O)(=O)Nc2cccc(N(C)S(C)(=O)=O)c2)cc1C | i
COc1nnc(-c2ccc(C)c(S(=O)(=O)NCc3cccnc3)c2)c2ccccc12 | 3%
CCc1cccc(C)c1NC(=O)C(C)N(c1ccc(OC)cc1)S(C)(=O)=O (stereo not given) | i
CCOc1cc(CO)ccc1OCc1ccc(Cl)c(Cl)c1 | 31%
O=C(O)C(Cc1c[nH]c2ccccc12)NS(=O)(=O)c1ccc(-c2ccccc2)cc1 (stereo not given) | i
CC1=C(C(=O)OC2CCCCC2)C(c2ccc3c(c2)OCO3)C2=C(CCCC2=O)N1 (stereo not given) | ?
CS(=O)(=O)N1CCC(C(=O)N2CCN(c3ccccc3)CC2)CC1 | i
COC(=O)c1ccc(Cl)c(NC(=O)COc2ccc(OC)cc2)c1 | i
CCOc1cc(C(N)=O)cc(I)c1OCC | i
CCOc1cc(C2Nc3ccccc3NC3=C2C(=O)CC(c2ccc(OC)cc2)C3)ccc1O (stereo not given) | i
COc1ccc(C(=O)c2sc(Nc3cccc(C(F)(F)F)c3)nc2N)cc1OC | 2%
Cc1c(C(=O)N2CCN(S(=O)(=O)c3cccs3)CC2)oc2ccccc12 | i
CN(CC(=O)O/N=C(\N)c1ccncc1)S(=O)(=O)c1ccc2ccccc2c1 | i
O=C(Nc1cccc2ccccc12)c1cc(=O)n2c(nc3ccccc32)s1 | ?
CC(=O)CCS(=O)(=O)c1ccc(C)c(C)c1 | i
COc1cccc(NC(=O)CN(Cc2ccccc2Cl)S(=O)(=O)c2ccc(Cl)cc2)c1 | 7%
CCOc1ccc(C(=O)NCCCOC(C)C)cc1OCC | 2%
Cn1c(=O)cc(-c2ccccc2)c2ccccc21 | i
C=CCNC(=S)NC1C2CN3CCN(C2)CC1(C)C3 (stereo not given) | i
Nc1cc(=O)[nH]c(SCC(=O)Nc2ccc(F)cc2)n1 | i
O=C(NCC1(c2ccccc2)CCCC1)C1(c2ccccc2)CCOCC1 | 6%
CN(CC(=O)NC1CCCC1)S(=O)(=O)c1ccc(F)cc1 | i

Six entries from above, as tab-separated lines.
Molecule	Mtb H37Rv
CCc1cccc(C)c1NC(=O)C(C)N(c1ccc(OC)cc1)S(C)(=O)=O (stereo not given)	i
CCOc1cc(CO)ccc1OCc1ccc(Cl)c(Cl)c1	31%
COc1cccc(NC(=O)CN(Cc2ccccc2Cl)S(=O)(=O)c2ccc(Cl)cc2)c1	7%
CCOc1cc(C(N)=O)cc(I)c1OCC	i
Cn1c(=O)cc(-c2ccccc2)c2ccccc21	i
CC1=C(C(=O)OC2CCCCC2)C(c2ccc3c(c2)OCO3)C2=C(CCCC2=O)N1 (stereo not given)	?

The list continues:
SMILES | Mtb H37Rv
O=C(NC1CCCCCCC1)C1CC1c1ccccc1 (stereo not given) | i
CC(=O)c1c(OC(=O)c2ccc(C)cc2)c2ccccc2n1C | ?
Cc1cc(C)cc(C(=O)NCCCN(C)C)c1 | i
O=c1[nH]c(/C=C/c2ccc(O)cc2)c([N+](=O)[O-])c(=O)[nH]1 | i
C=C(C)COc1cc(C)cc2oc(=O)c(C)c(C)c12 | i
Brc1ccccc1OCCCn1cncn1 | 0%
COc1cccc(C(=O)N2CCN(C(=O)COc3ccc(Cl)cc3)CC2)c1OC | i
O=C(O)c1ccccc1-c1ccccc1C(=O)Nc1cccc(O)c1 | i
O=C(Nc1ccccc1C(=O)N1CCCCC1)c1ccc(Cl)cc1Cl | 1%
CCCCNC(=O)c1ccc(N(C)S(=O)(=O)c2ccc(C)cc2)cc1 | i
Cc1cc(C)cc(NC(=O)c2cccc(C(=O)Nc3cc(C)cc(C)c3)n2)c1 | i
Cc1ccc(N(CC(=O)Nc2c(C)cc(C)cc2C)S(=O)(=O)c2ccccc2)c(C)c1 | i
Cc1c(NC(=O)C(c2ccccc2)c2ccccc2)cccc1-c1nc2ccccc2s1 | 20%
CCc1c(C)nc(Nc2nc(C)c3ccccc3n2)[nH]c1=O | 1%
O=C1NC(=Nc2ccc(Br)cc2)SC1Cc1ccc(Cl)c(Cl)c1 (stereo not given) | 43%
O=C(CC1CCCCC1)Nc1cccc(Cl)c1Cl | i
Cc1onc(-c2ccccc2Cl)c1-c1nc(-c2ccc(C(F)(F)F)cc2)no1 | 6%
CCOc1cc(Cl)c(CNCCCN2CCOCC2)cc1OC | i
CSc1ccccc1C(=O)NCCSC(C)(C)C | i
NC(=O)CCn1cc(C=O)c2ccccc21 | i
COCCCNC(=O)CSc1ccccc1 | i
CC1=C(C(N)=O)C(c2ccncc2)n2nc(SCc3ccccc3Cl)nc2N1 (stereo not given) | i
NC(=O)c1cc(-c2ccccc2)sc1NC(=O)c1ccco1 | i
COCC(C)NC(=O)c1ccccc1Oc1ccccc1 (stereo not given) | i
COc1ccccc1C1NC(=O)CCC1[N+](=O)[O-] (stereo not given) | i

More records follow.
SMILES | Mtb H37Rv
O=C(Nc1cccc2ncccc12)c1ccc2c(c1)OCCO2 | i
N#C/C(=C/c1ccc2c(c1)OCCO2)c1ccc(Cl)cc1 | i
COc1ccc(S(=O)(=O)NCCOc2ccccc2)cc1F | 10%
CCCc1cc(=O)oc2cc(OC(=O)c3cc(OC)c(OC)c(OC)c3)ccc12 | i
Cc1nc2c(-c3ccc(Cl)cc3)c(C(F)(F)F)[nH]n2c(=O)c1Cc1ccccc1 | i
CN(CC(=O)N1CCOCC1)S(=O)(=O)c1ccc(Br)cc1 | i
COc1cc(OC)c(OC)cc1/C=C1/C(=O)NC(=O)N(c2ccccc2OC)C1=O | i
COc1ccccc1Oc1nc2c(c(=O)n(C)c(=O)n2C)n1Cc1ccccc1Cl | 2%
c1ccc(CCCN2CCN(C3C4CC5CC(C4)CC3C5)CC2)cc1 (stereo not given) | i
COc1nnc(-c2ccc(N3CCOCC3)c(NC(=O)c3cccs3)c2)c2ccccc12 | 1%
CCOc1ccc(C(=O)NCCC2=CCCCC2)cc1OCC | 1%
COc1ccc(-c2nc(SCc3ccc(F)cc3)n[nH]2)cc1 | 6%
COc1c(Cl)cc(CO)cc1Cl | i
CC(C)Oc1ccc(C(=O)NC(=S)Nc2ccccc2C(=O)O)cc1 | i
Cc1nnc(SCC(=O)Nc2ccccc2C(F)(F)F)s1 | i
CC(=O)NS(=O)(=O)c1ccc(NC(=O)c2ccc(C)c(C)c2)cc1 | i
COc1ccccc1C(CCNS(=O)(=O)c1ccc(C)cc1)c1ccc(OC(C)C)cc1 (stereo not given) | i
O=C(Nc1ccc(S(=O)(=O)NC2CCCCC2)cc1)c1sc2ccccc2c1Cl | i
O=C(NCC1CCCO1)c1ccc(NC(=O)c2ccc(Br)cc2)cc1 (stereo not given) | 5%
CCCCC(Nc1ncnc2ccc(Br)cc12)C(=O)O (stereo not given) | i
Nc1nnc(/C=C/c2ccc3c(c2)OCO3)s1 | i
Cc1ccc(C)c(OCC(=O)Nc2cc(Cl)c(O)c(Cl)c2)c1 | 13%
CC(NC(=O)c1cccs1)C12CC3CC(CC(C3)C1)C2 (stereo not given) | i
CCOC(=O)c1c(NC(C)=O)sc(C)c1CC | i
CC1(C)NC(=O)N(CCOCCSc2ccccc2)C1=O | i

(more compounds)
SMILES | Mtb H37Rv
CN1CCN(NC(=S)NCc2ccc(F)cc2)CC1 | i
COc1ccc(C(=O)NCC2(c3ccc(OC)c(OC)c3)CCCC2)cc1 | i
O=C(CSc1nnc(CCCOc2ccc(Cl)cc2Cl)o1)Nc1cccc(Cl)c1 | i
O=C(Cn1cc(C(=O)C2CC2)c2ccccc21)NCc1ccco1 | i
COC(=O)c1c(NC(=O)CN(c2cccc(OC)c2)S(C)(=O)=O)sc2c1CCCC2 | i
CCOC(=O)c1cc(-c2ccccc2)sc1NC(=O)c1ccccc1F | i
Cc1ccc(S(=O)(=O)Cc2ccc(C(=O)OCc3ccccc3Cl)cc2)cc1 | i
O=C(CNS(=O)(=O)c1ccccc1)NCC(=O)OCc1ccc(Cl)cc1 | i
COC(=O)C(=O)CC(=O)c1c[nH]c2ccccc12 | i
CCOC(=O)Cc1ccc(NS(=O)(=O)c2ccc(SC)cc2)cc1 | i
CC(C)C(=O)NC(=S)NC(c1ccccc1)c1ccccc1 | 7%
O=c1c2c(-c3ccccc3)csc2ncn1Cc1ccc([N+](=O)[O-])cc1 | 5%
O=C(COc1ccccc1)N1CCc2ccccc2C1 | i
COC(=O)C1=C(C)Nc2nnnn2C1c1ccccc1OC (stereo not given) | 1%
COC(=O)Cc1ccc(NC(=S)N2CCN(c3cccc(O)c3)CC2)cc1 | i
CCOC(=O)COc1ccc(S(=O)(=O)Nc2cccc(C(C)=O)c2)cc1 | 20%
O=C(Nc1cccc(O)c1)c1ccc2c(c1)C(=O)N(Cc1cccnc1)C2=O | i
COc1ccc(OC)c(NC(=O)C2CC(=O)N(c3ccc(Cl)cc3)C2)c1 (stereo not given) | i
CC(NCc1ccc2c(c1)OCO2)c1ccccc1 (stereo not given) | i
CCc1nnc(NC(=O)CSc2nnc(-c3ccccc3)c(-c3ccccc3)n2)s1 | i
O=C(CSc1nc2ccccc2[nH]1)Nc1ccc2c(c1)OCO2 | i
C=CCNC(=O)Nc1ccc2nc(C)sc2c1 | i
CC(O)C12c3ccccc3C(c3ccccc31)C1C(=O)N(c3ccccc3C(F)(F)F)C(=O)C12 (stereo not given) | 8%
COc1ccc(CCNC(=O)C2(c3ccccc3)CCOCC2)cc1OC | i
O=C(CCn1nc(-c2ccccc2)c2ccccc2c1=O)Nc1cccnc1 | i

5 records drawn at random from the list so far, as already listed:
SMILES | Mtb H37Rv
CN1CCN(NC(=S)NCc2ccc(F)cc2)CC1 | i
O=C(CSc1nnc(CCCOc2ccc(Cl)cc2Cl)o1)Nc1cccc(Cl)c1 | i
CCCc1cc(=O)oc2cc(OC(=O)c3cc(OC)c(OC)c(OC)c3)ccc12 | i
COC(=O)C1=C(C)Nc2nnnn2C1c1ccccc1OC (stereo not given) | 1%
COc1ccccc1Oc1nc2c(c(=O)n(C)c(=O)n2C)n1Cc1ccccc1Cl | 2%

(further entries)
SMILES | Mtb H37Rv
O=C(Nc1ccccc1Br)C1CC(=O)N(c2ccc(Cl)c(Cl)c2)C1 (stereo not given) | i
O=C(NCc1cccnc1)c1ccc([N+](=O)[O-])cc1Cl | i
CN1CCc2nc(SCc3ccccc3C(F)(F)F)c(C#N)cc2C1 | 37%
O=C(CSc1nnc(NC(=O)c2ccc(Cl)c(Cl)c2)s1)Nc1ccccc1 | i
COc1cccc(CN2CCN(C(=O)c3cccc(OC)c3OC)CC2)c1 | i
CCCCN(C)CCOc1ccc(OC)cc1 | i
CCCCN1C(=O)C(O)(CC(=O)c2ccco2)c2cc(Br)ccc21 (stereo not given) | i
CCN(CC)c1ccc(NC(=O)Nc2ccc(F)cc2F)cc1 | i
CCOc1ccccc1OCC(=O)Nc1c(C)cc(C)cc1C | 6%
CCc1ccccc1N(CC(=O)Nc1ccccc1C(=O)NC(C)C)S(C)(=O)=O | i
O=C(NCCC12CC3CC(CC(C3)C1)C2)c1ccc(S(=O)(=O)N2CCOCC2)cc1 | 3%
O=c1oc(-c2cccc([N+](=O)[O-])c2)nc2ccccc12 | ?
CCOc1ccc(NC(=O)CN(c2ccc(I)cc2)S(C)(=O)=O)cc1 | i
CCOC(=O)C1CCCn2c1nc1sc3c(c1c2=O)CCCC3 (stereo not given) | 0%
CS(=O)(=O)N1CCC(C(=O)NCc2ccc(Cl)cc2)CC1 | i
CC(C)(C)c1ccc(C(=O)N2CCN(c3ccc([N+](=O)[O-])c(N4CCCCC4)c3)CC2)cc1 | 20%
CCC(C)NC(=S)Nc1ccc(F)cc1 (stereo not given) | i
O=C1C2C3c4ccccc4C(C(=O)O)(c4ccccc43)C2C(=O)N1c1cc(Cl)ccc1Cl (stereo not given) | i
O=C(Oc1ccc(Cl)cc1)c1c(F)cccc1F | i
O=S(=O)(Nc1ccncc1)c1ccc(Cl)cc1 | i
CS(=O)(=O)N(Cc1ccc(C(=O)Nc2ccc(Br)c(Cl)c2)cc1)c1ccccc1 | i
CCOC(=O)C1=C(C)N=c2s/c(=C\c3ccc(O)cc3)c(=O)n2C1c1ccccc1Cl (stereo not given) | 28%
COCCCNC(=O)C(C)c1ccccc1 (stereo not given) | i
CCOC(=O)c1ccc(NC(=S)Nc2ccc(I)cc2)cc1 | 32%
CC(C)(C)c1ccccc1NC(=O)c1ccccc1F | 3%

Of the compounds above, these contain a cyano group:
SMILES | Mtb H37Rv
N#C/C(=C/c1ccc2c(c1)OCCO2)c1ccc(Cl)cc1 | i
CN1CCc2nc(SCc3ccccc3C(F)(F)F)c(C#N)cc2C1 | 37%

Remaining list, next part:
SMILES | Mtb H37Rv
O=C(/C=C/c1cccs1)N1CCN(Cc2ccc3c(c2)OCO3)CC1 | <0.1µg/mL*
CN1CCN(C(=O)C(NC(=O)C2CCCCC2)C23CC4CC(CC(C4)C2)C3)CC1 (stereo not given) | i
O=C(Cc1ccccc1)NCc1cccs1 | 1%
COc1cc(C)ccc1OCCOCCOc1ccc(Br)cc1Cl | 1%
O=[N+]([O-])c1cc(C(F)(F)F)ccc1N1CCN(S(=O)(=O)c2ccc(Cl)c(Cl)c2)CC1 | 7%
CSCCC(C(=O)N1CC2(C)CC1CC(C)(C)C2)N1C(=O)c2ccccc2C1=O (stereo not given) | 15%
Cc1ccc(SCc2ccc(C(=O)Nc3cccc(N(C)S(C)(=O)=O)c3)cc2)cc1 | i
COCCCn1c(=NC(=O)c2ccc([N+](=O)[O-])cc2)c(C#N)cc2c(=O)n3ccccc3nc21 | i

Some of the compounds tested. The share of hits here may be higher or lower than overall.
